ABCB1 block: human ABCB1 inhibition, ABCG2 as counter-screen | P08183 | CCRF-Adr cells, JC-1 efflux, flow cytometry | inhibition, % at 6.6 µM | hit rate 0.067% among 190,000 | AID 1326; in the data active = inhibition above about 40%;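 also: 0% = vehicle and 100% = reference inhibitor; higher value means more JC-1 retained so stronger ABCB1 efflux block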
RGS4-Gao reg: modulates binding of RGS4 to human Galphao; Multiplexed bead flow cytometry; actives lie on both sides; binding response (% of control), % at 10 µM; hit rate 0.33% among 220,000; AID 1415; in the data active = binding response below about 49% or above about 150%; inactive = in between;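 also: fluorescent Galphao activated with aluminum fluoride binding bead-coupled RGS4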
Target sequence (P09471 whole entry, looked up): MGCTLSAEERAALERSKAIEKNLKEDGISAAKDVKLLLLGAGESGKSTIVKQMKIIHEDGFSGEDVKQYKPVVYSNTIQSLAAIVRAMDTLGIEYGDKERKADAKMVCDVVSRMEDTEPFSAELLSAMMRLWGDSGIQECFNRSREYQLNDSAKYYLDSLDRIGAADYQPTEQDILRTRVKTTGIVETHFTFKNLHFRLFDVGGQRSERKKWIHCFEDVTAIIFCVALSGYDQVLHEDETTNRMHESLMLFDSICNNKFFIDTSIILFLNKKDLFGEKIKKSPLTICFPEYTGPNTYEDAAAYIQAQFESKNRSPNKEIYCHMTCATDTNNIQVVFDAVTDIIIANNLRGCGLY
GSH fluor: GSH bead compound fluorescence profile. fluorescence (KMESF) at 10 µM. hit rate 0.25% among 190,000. GSH beads flow cytometry, compound fluorescence 488/530 nm; active compounds read high; in the data active = fluorescence above about 89;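 also: glutathione beads carrying GST-tagged Bcl family fusion proteins plus one bare bead set; values are compound well signal with DMSO vehicle wells as background; inactives centre near 16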
Pf gamet viab: kills late stage P. falciparum gametocytes; inhibition, % at 10.9 µM; P. falciparum stage V gametocytes, ATP luminescence, 24 h; hit rate 0.065% among 150,000; AID 743093;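 active = inhibition above the mean plus 3 SD of compounds within the control limits, set per campaign, cut at about 38% in these data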;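 also: 0% = DMSO wells and 100% = medium only without gametocytes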
RGS8-Gao reg: modulates binding of RGS8 to human Galphao; response (percent of control binding), % at 10 µM; multiplexed bead flow cytometry; actives lie on both sides; hit rate 0.34% among 220,000; P09471; in the data active = response below about 60% or above about 140%; inactive = in between;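 also: Galphao activated as the GDP aluminium fluoride complex binding bead-coupled RGS8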
Avidin bead fluor: avidin bead compound fluorescence profile. Avidin beads, compound fluorescence 488/530 nm, flow cytometry; active compounds read high. hit rate 0.38% among 220,000. fluorescence (KMESF) at 10 µM; in the data active = fluorescence above about 47; also: inactives centre near 10
ABCG2 block: human ABCG2 inhibition, ABCB1 as counter-screen. IgMXP3 cells, JC-1 efflux, flow cytometry. inhibition, % at 6.6 µM. hit rate 0.1% among 190,000;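 active = inhibition above 80%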;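 also: 0% = DMSO and 100% = nicardipine control wells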
Target sequence (Q9UNQ0 whole entry, looked up): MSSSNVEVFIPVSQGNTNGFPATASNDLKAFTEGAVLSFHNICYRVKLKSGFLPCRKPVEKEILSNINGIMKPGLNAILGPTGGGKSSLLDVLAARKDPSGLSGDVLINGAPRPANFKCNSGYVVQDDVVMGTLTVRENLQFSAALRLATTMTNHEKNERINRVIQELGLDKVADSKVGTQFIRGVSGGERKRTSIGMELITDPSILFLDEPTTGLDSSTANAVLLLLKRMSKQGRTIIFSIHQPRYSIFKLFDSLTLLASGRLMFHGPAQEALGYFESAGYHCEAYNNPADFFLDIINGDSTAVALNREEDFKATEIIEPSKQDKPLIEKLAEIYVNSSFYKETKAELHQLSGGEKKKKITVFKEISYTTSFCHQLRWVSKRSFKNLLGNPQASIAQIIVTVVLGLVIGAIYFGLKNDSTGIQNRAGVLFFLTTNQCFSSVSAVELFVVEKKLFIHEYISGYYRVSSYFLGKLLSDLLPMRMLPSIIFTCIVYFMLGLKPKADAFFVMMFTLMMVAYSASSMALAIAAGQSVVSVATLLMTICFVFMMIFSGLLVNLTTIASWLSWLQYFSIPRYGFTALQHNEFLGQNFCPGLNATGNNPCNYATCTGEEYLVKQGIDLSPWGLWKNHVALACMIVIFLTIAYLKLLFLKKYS
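Test system: IgMXP3 cells (ABCG2) mixed with DDAO far-red-labelled CCRF-Adr cells (ABCB1). Reagent: JC-1 transporter substrate. Compound dosing: single test compound dose, 6.6 µM final. Times: 10 min compound exposure, 25 °C. Detection: flow cytometry of retained JC-1 fluorescence. Read-out basis: efflux inhibition in percent versus controls. Controls: nicardipine and DMSO wells.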
RGS7-Gao: regulators of human RGS7-Galphao interaction | P09471 | Multiplexed bead flow cytometry, RGS7-Galphao binding; actives lie on both sides | binding response (% of control), % at 10 µM | hit rate 0.35% among 220,000 | AID 1439; in the data active = binding response below about 49% or above about 150%;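 also: fluorescent Galphao held in activated GDP-AlF4 state binding bead-coupled RGS7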
* hit, by the source's call; . = not tested or not shown. An excerpt. The share of hits here may be higher or lower than overall.

SMILES	ABCB1 block	RGS4-Gao reg	GSH fluor	Pf gamet viab	RGS8-Gao reg	Avidin bead fluor	ABCG2 block	RGS7-Gao
COc1cccc(N/C(SCc2cccc([N+](=O)[O-])c2)=C(/C#N)C(N)=O)c1	2.0	100	16	.	102	11	7	103
O=c1[nH]c2ccc(N=Cc3c(O)ccc4cc(Br)ccc34)cc2[nH]1	-0.1	103	6	8	99	6	-1	97
CC1CCCCN1C(=O)CSc1nc(C2CC2)nc2c1cnn2-c1ccccc1 (stereo not given)	1.7	103	25	.	100	28	13	104
COc1ccccc1C(=O)NCCNC(=O)c1ccco1	1.0	102	25	.	102	33	27	103
O=C(Nc1cccnc1)c1sc(Nc2ccccc2)nc1-c1ccccc1	0.4	100	5	2	100	13	5	101
Cc1sc2nc(CN3CCCC3)nc(N3CCN(S(=O)(=O)c4cccs4)CC3)c2c1C	1.7	90	13	.	108	15	1	97
O=C(COc1ccc(/C=N/NC(=O)c2ccc(O)cc2)cc1)Nc1ccc([N+](=O)[O-])cc1	-0.1	103	11	.	109	9	17	105
COc1ccc(-c2cc(-c3n[nH]c(=S)n3-c3ccccc3OC)[nH]n2)cc1	-0.6	97	20	-8	94	11	-4	104
CCc1nc(SCC(=O)N2CCCC2)c2ccccc2n1	1.9	102	28	25	104	33	37	99
CCCOC(=O)c1cccc(NC(=O)C(C)(C)C)c1	0.4	98	41	.	91	9	6	97
COc1ccc(F)cc1C(=O)C1CCCN(Cc2cccn2-c2cccnc2)C1 (stereo not given)	4.4	99	19	-3	99	7	5	101
C/C(=N/NC(=O)c1cccs1)c1ccc(NC(=O)COc2ccc(Cl)cc2Cl)cc1	0.0	103	7	.	96	15	1	92
NC(=O)[C@H]1CC2(CC(c3cccc(NC(=O)c4ccccc4)c3)=NO2)CN1C(=O)[C@H]1CCC(=O)N1 (stereo not given in full)	0.1	96	9	.	98	9	0	97
O=[N+]([O-])c1ccc(/C=C/c2nc3ccc([N+](=O)[O-])cc3[nH]2)cc1	0.1	98	9	18	103	13	24	99
Cc1cc(C)nc(SCc2ccc(C(=O)NNC(=O)Nc3cccc(Cl)c3)cc2)n1	-0.4	100	12	9	106	14	-2	103
CCCCC(=O)NC(Nc1sc2c(c1C(N)=O)CCCC2)(C(=O)OCC)C(F)(F)F (stereo not given)	-0.1	93	17	.	99	3	0	95
CCOC1OC(=O)C(Cl)=C1Nc1ccc(C)cc1 (stereo not given)	0.5	99	11	-11	97	14	3	96
CC1(C)CCCC(C)(C)N1CC(O)COCCOc1ccc(Br)cc1 (stereo not given)	0.1	100	20	6	101	17	0	100
COCCn1c(=NC(=O)CSC(C)=O)sc2cc(F)ccc21	0.4	106	5	-23	107	6	4	101
CC1(C)CC(CCNC(=O)c2ccco2)CC(C)(C)N1	-0.1	96	8	-16	97	10	7	97
O=C1c2ccc3c4c(ccc(c24)C(=O)N1c1ccc(O)cc1)C(=O)N(c1ccc(O)cc1)C3=O	0.1	99	18	17	102	13	1	96
O=S(=O)(Nc1cccc(C(F)(F)F)c1)c1cnc[nH]1	0.3	103	21	.	100	26	2	98
CCOc1cc(/C=N\NC(=O)Cc2ccccc2)ccc1OCC(=O)Nc1ccc(C)c(C)c1	-0.5	101	26	.	104	9	-1	100
CCOCC(=O)Nc1cc(C(=O)Nc2ccccc2)ccc1Cl	0.4	96	8	.	98	30	4	94
CCn1c2ccc(OC)cc2c2nc3ccccc3nc21	0.5	103	17	.	103	7	2	102
Cc1c(/C=N/NC(=O)c2cccnc2)c2ccccn2c1C(=O)c1ccc(F)cc1	5.2	91	4	.	98	16	0	89
O=C(COC(=O)c1cc(F)c(F)cc1Cl)NC1CC1	-0.3	95	15	9	100	19	0	98
Cc1ccc(NC2=C(Cl)C(=O)OC2OC(=O)c2ccco2)cc1 (stereo not given)	0.1	78	13	15	89	6	0	95
CC(O)c1cccc(NC(=O)CCCc2ccccc2)c1 (stereo not given)	0.0	101	9	-16	95	6	2	96
CCOCCCN(C(=O)Nc1ccc(CC)cc1)C1CCN(C(C)=O)CC1	-0.8	101	33	.	98	16	4	101
CCOc1cc(/C=N/NC(=O)CN2CCOCC2)ccc1OCc1ccc(Cl)cc1	1.4	98	32	.	101	7	6	99
N#CC(c1cccc(C(F)(F)F)c1)(c1ncc(C(F)(F)F)cc1Cl)N1CCOCC1 (stereo not given)	0.3	98	12	.	99	8	1	99
COc1ccc(C(=O)N2CCC(n3c(C)nc4cc(F)ccc43)CC2)cc1OC	0.9	107	16	.	104	30	3	102
O=C(N(c1ccccn1)c1ccccn1)C12CC3CC(CC(C3)C1)C2	-0.2	99	13	-2	104	14	1	98
CCC(C)c1ccc(NC(=S)Nc2ccc(OC)cc2C)cc1 (stereo not given)	0.5	106	11	-3	104	6	8	105
Cc1cc(C)c([N+](=O)[O-])cc1-c1ccc(/C=N/c2c(-c3ccco3)nc3ccccn23)o1	1.1	97	25	.	95	7	12	93
CC(=O)Nc1ccc(Nc2nc(C)c([N+](=O)[O-])c(Nc3ccccc3)n2)cc1	1.9	101	4	.	100	14	14	100
Cc1nc2cc(S(=O)(=O)N3CCC(C(=O)O)CC3)ccc2n1C1CCCC1	0.5	100	14	.	97	20	2	104
C=CCn1c(CCNC(=O)c2ccccc2F)nnc1SCC(=O)Nc1nc(C)cs1	0.1	106	10	-12	103	7	3	107
CCOC(=O)c1cc(C(=O)OCC)c2cccc(C)n2c1=O	0.7	98	28	-4	100	13	31	98
Cc1c(C=O)c2ccccn2c1C(=O)c1ccncc1	0.5	100	11	.	100	15	5	101
CN1CCN(CC(O)COCCOc2ccc(Br)cc2)CC1 (stereo not given)	0.3	101	8	3	103	2	3	100
NC(=O)CNC(=O)[C@@H]1CC2(CC(c3cccc([N+](=O)[O-])c3)=NO2)CN1C(=O)c1ccccc1 (stereo not given in full)	0.5	98	9	9	103	8	3	100
Cc1cc(C(F)(F)F)c2c(n1)sc1c(O)cc(=O)[nH]c12	0.4	88	49	1	85	3	0	96
C=CCn1c(CCNC(=O)c2cccs2)nnc1SCC(=O)Nc1cccc(C(C)=O)c1	1.3	105	27	.	105	25	7	108

Part of the list above in another layout:
| Compound | ABCB1 block | RGS4-Gao reg | GSH fluor | Pf gamet viab | RGS8-Gao reg | Avidin bead fluor | ABCG2 block | RGS7-Gao |
| --- | --- | --- | --- | --- | --- | --- | --- | --- |
| CCC(C)c1ccc(NC(=S)Nc2ccc(OC)cc2C)cc1 (stereo not given) | 0.5 | 106 | 11 | -3 | 104 | 6 | 8 | 105 |
| Cc1cc(C)c([N+](=O)[O-])cc1-c1ccc(/C=N/c2c(-c3ccco3)nc3ccccn23)o1 | 1.1 | 97 | 25 | . | 95 | 7 | 12 | 93 |
| CC(=O)Nc1ccc(Nc2nc(C)c([N+](=O)[O-])c(Nc3ccccc3)n2)cc1 | 1.9 | 101 | 4 | . | 100 | 14 | 14 | 100 |
| Cc1nc2cc(S(=O)(=O)N3CCC(C(=O)O)CC3)ccc2n1C1CCCC1 | 0.5 | 100 | 14 | . | 97 | 20 | 2 | 104 |
| C=CCn1c(CCNC(=O)c2ccccc2F)nnc1SCC(=O)Nc1nc(C)cs1 | 0.1 | 106 | 10 | -12 | 103 | 7 | 3 | 107 |
| CCOC(=O)c1cc(C(=O)OCC)c2cccc(C)n2c1=O | 0.7 | 98 | 28 | -4 | 100 | 13 | 31 | 98 |
| Cc1c(C=O)c2ccccn2c1C(=O)c1ccncc1 | 0.5 | 100 | 11 | . | 100 | 15 | 5 | 101 |
| CN1CCN(CC(O)COCCOc2ccc(Br)cc2)CC1 (stereo not given) | 0.3 | 101 | 8 | 3 | 103 | 2 | 3 | 100 |
| NC(=O)CNC(=O)[C@@H]1CC2(CC(c3cccc([N+](=O)[O-])c3)=NO2)CN1C(=O)c1ccccc1 (stereo not given in full) | 0.5 | 98 | 9 | 9 | 103 | 8 | 3 | 100 |
| Cc1cc(C(F)(F)F)c2c(n1)sc1c(O)cc(=O)[nH]c12 | 0.4 | 88 | 49 | 1 | 85 | 3 | 0 | 96 |
| C=CCn1c(CCNC(=O)c2cccs2)nnc1SCC(=O)Nc1cccc(C(C)=O)c1 | 1.3 | 105 | 27 | . | 105 | 25 | 7 | 108 |

(cont.)
SMILES	ABCB1 block	RGS4-Gao reg	GSH fluor	Pf gamet viab	RGS8-Gao reg	Avidin bead fluor	ABCG2 block	RGS7-Gao
COc1ccccc1-n1cnc2c(c1=O)c1nc3ccccc3nc1n2-c1ccc(C)c(C)c1	-0.9	105	8	-16	102	7	-7	106
COc1ccccc1CNC(=O)c1ccc2nc3[nH]c4ccccc4c3nc2c1	-0.1	99	9	-5	101	21	-4	100
COc1ccc(-n2nc(C(=O)NCc3ccco3)c3c4ccccc4n(C)c3c2=O)cc1Cl	2.1	101	12	.	100	9	5	98
Cc1ccc2oc(-c3ccc(NC(=O)c4cccnc4)cc3)nc2c1	-0.4	100	26	-12	101	13	0	100
COc1ccc(OCC(=O)Nc2cccc(C(C)=O)c2)cc1	1.8	100	14	.	103	6	45	102
Cc1ccc(NC(=O)C2CC(Cl)=CCC2C(=O)O)c([N+](=O)[O-])c1 (stereo not given)	0.5	101	11	-15	100	11	4	93
Cc1cc2c(cc(C(=O)NCCCN3CCOCC3)n2Cc2ccc(Cl)cc2)o1	0.7	101	45	20	99	5	1	104
O=C1Nc2cc(C(=O)N3CCc4ccccc4C3)ccc2S/C1=C\c1ccccc1	2.4	92	12	8	85	2	26	94
O=C(COC(=O)c1ccc2ncsc2c1)Nc1ncc(Cl)cc1Cl	0.0	100	6	-21	107	2	-1	104
C=CCn1c(CCNC(=O)c2ccccc2F)nnc1SCC(=O)Nc1nc2ccccc2s1	1.8	99	41	.	100	7	17	105
CCN1CCN(C(c2ccccn2)c2c(NC(=O)c3ccccc3)sc(C)c2C)CC1 (stereo not given)	0.5	96	4	-2	99	17	0	98
COc1ccc(OC)c(-c2csc(N3CCC(c4ccccc4)CC3)n2)c1	-0.3	95	17	-2	103	8	-2	96
O=C(Nc1cccc(C(F)(F)F)c1)c1ccc2nc(-c3ccco3)c(-c3ccco3)nc2c1	-0.6	103	6	6	113	6	-2	102
Cc1cccc(NC2SC(=O)N(CC(=O)O)C2=O)c1 (stereo not given)	0.6	103	63	.	104	7	1	101
CCn1c(CNc2ccc(C)cc2)nnc1SCC(N)=O	0.3	103	16	.	105	5	1	100
COc1ccc(/C(O)=C2\C(=O)C(=O)N(c3cc(C)on3)C2c2ccc(OC)c(OC)c2)cc1OC (stereo not given)	0.8	98	23	-8	103	32	3	100
CC1(C)Cc2c(C#N)c(N3CCN(C(=O)c4ccco4)CC3)nc(-c3ccco3)c2CS1	1.9	90	25	-4	91	27	10	86
C=CCn1cc(/C=N\NC(=O)c2cc3c(ccc4ccccc43)o2)c2ccccc21	0.9	95	21	.	98	19	5	95
CCCn1c(N2CCN(S(=O)(=O)Cc3ccccc3)CC2)nc2ccccc21	3.1	102	34	.	101	16	36	102
Cc1ccc(NC(=S)NNC(=O)Cn2nc(C(F)F)cc2C(F)F)cc1	0.8	101	28	-17	104	11	9	106
O=C(NCc1ccc(F)cc1)c1c2c(nc3ccccc13)CCC2	0.4	103	14	-5	104	14	0	102
COC(=O)c1ccc2c(=O)[nH]c(CSc3nc(-c4ccc(F)cc4)cs3)nc2c1	-0.5	101	8	.	102	6	-3	100
C=CCc1cc(OC)ccc1OCCON1C(=O)CCC1=O	0.6	103	18	13	100	7	3	101
CCc1cc(C(c2ccncc2)N2CCN(C)CC2)c(NC(=O)c2ccccc2)s1 (stereo not given)	0.1	100	22	-3	99	5	-2	101
CCc1ccc(NC(=O)N(C2CCC(C)CC2)C2CCN(C(C)=O)CC2)cc1 (stereo not given)	-0.5	99	24	.	98	27	-6	100
CCc1ccc(NC(=O)N(CCCOC(C)C)C2CCN(C(C)=O)CC2)cc1	1.2	99	22	.	100	28	10	102
CCC(C)(C)n1nnnc1CN1CCN(c2nc3cc(OC)ccc3cc2C#N)CC1	0.6	94	26	-24	99	34	2	100
COC(=O)CCC(=O)Nc1cccc([N+](=O)[O-])c1	-0.1	105	10	21	105	22	1	107

From PubChem BioAssay
